CHT inh: inhibitors of human choline transporter CHT; CHT-expressing cells, membrane potential dye, choline response; hits give low values; B-score at 10 µM; 0.86% of 310,000 active;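 active means B-score over 3 SD under the library average, and starting fluorescence ratio not unusually high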;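 further: choline stimulus applied at its EC90 after an EC20 pre-addition; B-score computed on integrated fluorescence ratio after choline addition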
Target sequence (Q9GZV3 whole entry, looked up): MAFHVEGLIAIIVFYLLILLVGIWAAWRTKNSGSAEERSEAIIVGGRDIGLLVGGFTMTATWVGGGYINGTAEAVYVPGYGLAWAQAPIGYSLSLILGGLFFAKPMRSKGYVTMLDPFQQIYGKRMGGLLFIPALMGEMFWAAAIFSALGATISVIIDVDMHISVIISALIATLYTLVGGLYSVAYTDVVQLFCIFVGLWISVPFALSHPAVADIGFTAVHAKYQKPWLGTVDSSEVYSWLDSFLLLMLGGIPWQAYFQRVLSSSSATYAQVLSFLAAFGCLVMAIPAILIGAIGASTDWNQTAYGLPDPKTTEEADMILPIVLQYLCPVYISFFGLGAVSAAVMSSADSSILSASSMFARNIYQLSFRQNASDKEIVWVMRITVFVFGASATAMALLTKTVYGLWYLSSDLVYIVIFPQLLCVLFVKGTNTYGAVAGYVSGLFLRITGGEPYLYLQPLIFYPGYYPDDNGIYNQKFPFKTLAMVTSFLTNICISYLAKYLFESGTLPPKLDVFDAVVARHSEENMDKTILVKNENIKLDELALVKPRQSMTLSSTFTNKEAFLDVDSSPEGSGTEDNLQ
Calls only; i = inactive.

SMILES | CHT inh
COc1ccc(S(=O)(=O)N2CCOC2CNC(=O)C(=O)NCc2ccc(F)cc2)cc1 (stereo not given) | i
COC(=O)c1nn(-c2ccccc2)c(=O)cc1O | i
COc1cc(NS(=O)(=O)c2ccc(NC(=S)NC(=O)c3ccco3)cc2)ncn1 | i
CCOc1cc2c(C#N)c(N3CCCC3)nc(N)c2c(N)n1 | i
COc1cccc(OC)c1NC(=O)Cn1nc(C)c2ccccc2c1=O | i
CCOc1ccccc1N(CC)C(=O)c1nn(C)c2c1CSc1ccccc1-2 | i
CC(=O)Nc1ccc(/C=C(\C#N)C(=O)NC2CCCCC2)cc1 | i
O=C(NC(=S)Nc1ccc(Br)cn1)c1cccs1 | i
COCC(=O)Nc1cc(OC)c(Cl)cc1OC | i
CC(C)(C)c1cc(C(F)(F)F)c(C#N)c(=O)[nH]1 | i
CCc1cc(=O)oc2cc(C)cc(OCC(=O)NCc3ccncc3)c12 | i
Cn1c(=O)c2cn(-c3ccccc3)cc2n(C)c1=O | i
Cc1ccc(-c2cnc(N)n2C)cc1C | i
NC(=O)C1CCN(C(=S)NCCc2ccccc2)CC1 | i
O=C1OC(c2ccccc2)/C(=C(/O)c2ccc(Cl)cc2)C1=O (stereo not given) | i
COc1ccc(-c2noc(CN(C)C(=O)c3ccc4c(c3)OCO4)n2)cc1OC | i
NC(=S)N/N=C/c1ccc2c(c1)OCCO2 | i
COc1ccc(CN(C)C(=O)COC(=O)c2ccc3c(c2)OCO3)cc1OC | i
CN(c1ccccc1)c1nc(N)c([N+](=O)[O-])c(Nc2ccc(F)cc2)n1 | i
Cc1ccc(NC(=O)c2cc(S(=O)(=O)N3CCCC3)cn2C)cc1C | i
C[C@H](NC(=O)c1nc[nH]c1C(=O)N1CCN(c2ccccc2)CC1)C(=O)OCc1ccccc1 | i
CN1CCN(C(=S)NC(=O)c2ccc(-c3ccccc3)cc2)CC1 | i
CCCc1cc(=O)[nH]c(SCCOC(=O)c2ccccc2)n1 | i
Cc1cc(S(=O)(=O)N2CCOCC2)ccc1OCC(=O)N1CCCCC1 | i
CC1SC(C)C(=O)N(CC(=O)Nc2ccc([N+](=O)[O-])cc2)C1=O (stereo not given) | i
CCOc1cc(N2CCOCC2)c(OCC)cc1NC(=O)COc1ncnc2ccccc12 | i
Nc1ncnc2c1nc(Sc1ccc(Cl)cc1)n2[C@@H]1O[C@@H]2COP(=O)(O)O[C@H]2[C@H]1O | i
COc1ccc(N2CCN(C(=O)C(C)(C)Oc3ccc(Cl)cc3)CC2)cc1 | i
CN1C(=O)/C(=C/c2cccc(Cl)c2)Sc2ccc(C(=O)N3CCCC3)cc21 | i
O=C(CN1C2CCCC1CC(NC(=O)c1ccccc1)C2)Nc1ccccc1C(F)(F)F (stereo not given) | i
CCOC(=O)CSCC(NC(=O)OC(C)(C)C)C(=O)OCC (stereo not given) | i
Cc1ccccc1SCC(=O)NC1CCOC1=O (stereo not given) | i
O=C(CSc1nc2c(c(C(F)(F)F)n1)CCc1ccccc1-2)NCc1ccccc1 | i
Cc1cccc(N2CCN(C(=O)CN3C(=O)C4CC=CCC4C3=O)CC2)c1C (stereo not given) | i
COc1ccc(-c2cc(C)no2)cc1S(=O)(=O)Nc1cccc(CN2CCCC2)c1 | i
O=C(CC1=NC2(CCCC2)Cc2ccccc21)N1CCOCC1 | i
Cc1ccnc(NC(=O)CCC(=O)N(CC(=O)NC2CCCCC2)c2cccc(C)c2C)c1 | i
COc1ccc(NC(=O)N2CCOCC2)cc1 | i
CC(C)c1nnc(NC(=O)C2CCCN2C(=O)Nc2ccccc2F)s1 (stereo not given) | i
COc1ccccc1CNC(=O)COC(=O)c1ccccn1 | i
CC(C)NC(=O)c1ccc(S(=O)(=O)N(C)C)cc1 | i
COCCn1nnnc1CN1CCN(c2cccc(C(F)(F)F)c2)CC1 | i
O=c1[nH]c(-c2ccc(Cl)cc2)nc(=S)[nH]1 | i
CCC(CO)Nc1ncnc2c1cnn2-c1ccc(Cl)cc1 (stereo not given) | i
O=C(Nc1ccc(F)cc1)C1CC(=O)n2ncnc2N1 (stereo not given) | i

Next part; the last three above are carried over.
SMILES | CHT inh
O=c1[nH]c(-c2ccc(Cl)cc2)nc(=S)[nH]1 | i
CCC(CO)Nc1ncnc2c1cnn2-c1ccc(Cl)cc1 (stereo not given) | i
O=C(Nc1ccc(F)cc1)C1CC(=O)n2ncnc2N1 (stereo not given) | i
CCOC(=O)C1CCN(C(=O)COC(=O)c2cc(-c3cccs3)nn2-c2ccccc2)CC1 | i
COC(=O)c1sccc1NC(=S)N1CCN(c2cc(C)ccc2C)CC1 | i
CCc1nnc(NC(=O)C(C)Sc2ccccc2)s1 (stereo not given) | i
C=C(C)CSc1nc2sc3c(c2c(=O)n1-c1ccc(OC)cc1)CCN(C)C3 | i
NNC(=O)c1cccc(COc2ccc3c(c2)CCC3)c1 | i
O=C(COc1cccc(F)c1)Nc1ccc2[nH]c(=O)[nH]c2c1 | i
CCOC(=O)CCC(=O)c1c(C)oc2ccc(OC)cc12 | i
COc1cccc(NC2CC(=O)N(CCc3ccccc3)C2=O)c1 (stereo not given) | i
Cc1ccc(C(C(=O)NC2CCCC2)N(Cc2ccc3c(c2)OCO3)C(=O)c2snc(C(N)=O)c2N)cc1 (stereo not given) | i
CCC(C)(C)NC(=O)C(c1ccc(OC)cc1)N(C(=O)CCC(=O)Nc1cc(C)on1)c1ccc2c(c1)OCO2 (stereo not given) | i
COc1nc(N(CC(N)=O)S(=O)(=O)c2ccccc2)nc(C)c1Cl | i
CCOC(=O)C1(Cc2ccccc2)CCCN(C(=O)c2cn[nH]c2)C1 (stereo not given) | i
COc1cc(OC)c(C2N(c3ccc(Cl)c(Cl)c3)C(=O)C3CCCN32)cc1OC (stereo not given) | i
CNc1oc(-c2cccc3ccccc23)nc1C#N | i
Clc1cccc2sc(N3CCCCC3)nc12 | i

The final three records of the section above come first, to join the parts.
SMILES | CHT inh
COc1cc(OC)c(C2N(c3ccc(Cl)c(Cl)c3)C(=O)C3CCCN32)cc1OC (stereo not given) | i
CNc1oc(-c2cccc3ccccc23)nc1C#N | i
Clc1cccc2sc(N3CCCCC3)nc12 | i
C=CCSc1nnc(NC(=O)C23CC4CC(CC(NC(C)=O)(C4)C2)C3)s1 | i
COc1cc2c(cc1OC)CN(C(=O)CN1C(=O)c3ccc([N+](=O)[O-])cc3C1=O)CC2 | i
CCOC(=O)c1sc2nc(SCC(=O)NCc3ccco3)n(Cc3ccccc3)c(=O)c2c1C | i
CC1Cc2ccccc2N1C(=O)C1CCN(S(=O)(=O)Cc2ccccc2)CC1 (stereo not given) | i
N#Cc1c(Sc2ncc(C(F)(F)F)cc2Cl)nsc1C/C=N\OCc1ccccc1Br | i
COc1ccc(-c2nc3c(c(=O)[nH]c(=O)n3Cc3ccccc3)n2C)cc1 | i
COc1ccc(-c2cc(C(=O)NCCCn3ccnc3)no2)cc1 | i
Cc1ccc(C(=O)NCC(=O)Nc2ncccc2C)s1 | i
CC(=O)c1cn(-c2ccc(Cl)cc2)c(=O)[nH]c1=O | i
Cc1cc(OCc2nc(-c3ccncc3)no2)cc(C)c1Cl | i
CC(C)C(c1nnnn1CCc1ccccc1)N1CCC(C(N)=O)CC1 (stereo not given) | i
O=C(CN1C(=O)COc2ccc(Cl)cc21)NCC1CCCO1 (stereo not given) | i
C=CCNc1nc(-c2cc3ccccc3o2)cs1 | i
Cc1cc(=O)n(CCCO)c(O)c1C#N | i
COc1ccc(/C=C(\NC(=O)c2cccs2)C(=O)N2CCOCC2)cc1OC | i

Retrieved by structure from above, five records:
SMILES | CHT inh
O=C(NC(=S)Nc1ccc(Br)cn1)c1cccs1 | i
Cc1cc(=O)n(CCCO)c(O)c1C#N | i
CCCc1cc(=O)[nH]c(SCCOC(=O)c2ccccc2)n1 | i
COc1nc(N(CC(N)=O)S(=O)(=O)c2ccccc2)nc(C)c1Cl | i
COc1ccc(-c2cc(C)no2)cc1S(=O)(=O)Nc1cccc(CN2CCCC2)c1 | i

Following part.
SMILES | CHT inh
OC(CNCCc1ccc(Cl)cc1)COCc1ccco1 (stereo not given) | i
O=C(NCCCn1ccnc1)/C(=C\c1ccccc1Cl)NC(=O)c1ccccc1 | i
COc1ccccc1CN1C[C@@H]2C[C@@H](c3ccc(Cl)cc3)N3CCC[C@@]23C1=O | i
COc1ccc(CCC(=O)NNC(=O)Nc2ccccc2Cl)cc1 | i
CC(C)c1nc(SCC(=O)c2ccccc2)c2c(=O)n(C)c(=O)n(C)c2n1 | i
CC(C)Cn1cnc2c1c(=O)n(CC(=O)Nc1ccc3c(c1)OCO3)c(=O)n2Cc1ccccc1 | i
CC(=O)N1CCN(c2ccc(OC[C@H]3CO[C@](Cn4ccnc4)(c4ccc(Cl)cc4Cl)O3)cc2)CC1 | i
C/C(CC(=O)NCc1ccco1)=N\NC(=O)COc1ccc(Cl)cc1Cl | i
CCCCCCc1cc2cc(C(=O)Nc3cccc(OC)c3)c(=O)oc2cc1O | i
COc1ccc(CNC(=O)C(CCSC)NC(=O)c2ccco2)cc1 (stereo not given) | i
COc1ccc(S(=O)(=O)n2nc(OC(=O)c3ccccc3)cc2N)cc1 | i
CCOC(=O)Nc1ccccc1C(=O)N1CCOCC1 | i
COc1cccc(CNC(C)C(=O)Nc2ccc3c(c2)OCCO3)c1 (stereo not given) | i
COCC(=O)Nc1nnc(SCC(=O)N2C(C)CCCC2C)s1 (stereo not given) | i
Cc1cccc(C)c1N1C(=O)C2ON(c3ccccc3)C(c3ccncc3)C2C1=O (stereo not given) | i
O=C(NNC(=S)Nc1ccccc1Cl)C1CC1 | i
COc1ccc(OC)c(Cc2nnc(CCC(=O)NC3CCCCCCC3)o2)c1 | i
COc1cc(OC)c(C2C(C#N)=C(C)NC(C)=C2C#N)c(C(=O)O)c1 | i
Cc1ccc(NC(=O)COC(=O)Cc2csc(-c3cccc(F)c3)n2)cc1C | i
COc1ccc(C=O)cc1CSc1ncccc1C(=O)O | i
c1csc(-c2ncc3ccccn23)c1 | i
NS(=O)(=O)c1ccc(CCNS(=O)(=O)c2ccccc2)cc1 | i
C=CCOC(=O)C1=C(C)Nc2ncnn2C1c1cc(Br)ccc1F (stereo not given) | i
CCc1ccc2[nH]c(=O)c(C(c3nnnn3Cc3ccco3)N3CCC(C)CC3)cc2c1 (stereo not given) | i
COc1ccc(N2CCN(C(=O)COC(=O)c3oc4ccc(OC)cc4c3C)CC2)cc1 | i
CC1(c2ccc(OC(F)F)cc2)NC(=O)N(CC(=O)Nc2cccnc2Cl)C1=O (stereo not given) | i
C=CCn1c(SCC(=O)NCC2CCCO2)nc2scc(-c3ccc(OC)cc3)c2c1=O (stereo not given) | i
COc1ccccc1C1=NNC(=NCc2ccccc2)SC1 | i
CCC12CN3CC(CC)(CN(C1)C31C(=O)N(C)c3ccc(C)cc31)C2=O (stereo not given) | i
CC#CCN(CC#CC)S(=O)(=O)c1ccc(S(=O)(=O)N2CCOCC2)cc1 | i

3 neighbouring entries already listed, quoted:
SMILES | CHT inh
c1csc(-c2ncc3ccccn23)c1 | i
NS(=O)(=O)c1ccc(CCNS(=O)(=O)c2ccccc2)cc1 | i
C=CCOC(=O)C1=C(C)Nc2ncnn2C1c1cc(Br)ccc1F (stereo not given) | i

More compounds.
SMILES | CHT inh
COc1ccc(NCC(=O)N/N=C/C=C/c2ccccc2[N+](=O)[O-])cc1 | i
CCOc1cccc(-c2nnc3sc(COc4ccc(C)cc4)nn23)c1 | i
CCOC(=O)N1CCN(C(=O)CSc2nnc(COc3ccc(Cl)cc3)o2)CC1 | i
CCOc1ccc(-n2c(=O)c3c4c(sc3n(CC(=O)NCC3CCCO3)c2=O)CCCC4)cc1 (stereo not given) | i
COc1cccc(N2CC34C=CC(O3)C(C(=O)O)C4C2=O)c1 (stereo not given) | i
CC(C)[C@H](Nc1ccc(S(=O)(=O)N2CCOCC2)cc1[N+](=O)[O-])C(=O)OCC(N)=O | i
O=S(=O)(c1ccc(-c2nnco2)cc1)N1CCCCC1 | i
CCC(CC)C(=O)Nc1cccc(-c2nc3ccccc3o2)c1 | i
Nc1nc(SCC(=O)Nc2ccccc2)[nH]c(=O)c1NC(=O)c1cccs1 | i
COc1ccc2[nH]cc(C(=O)NCCc3ccccc3)c(=O)c2c1 | i
Nc1n[nH]c(CCCO)n1 | i
C=C(C)C(=O)NC1=NN(c2ccccc2)C(=O)C1 | i
CC(=O)Nc1c(Br)cc(N2C(=O)CCC2=O)cc1Br | i
N#Cc1c2n(cnc1=O)CCCCC2 | i
CC(C)(C)c1ccc(OCCC(=O)OCC(=O)NC(=O)NC2CCCC2)cc1 | i
Cc1nc2c(Br)c(C)nn2c2c1CCC2 | i
C[C@H](NC(N)=O)C(=O)Nc1ccc(OCc2ccccc2)cc1 | i
CC1Cc2nc(SCC(=O)OCc3ccccc3)n(C)c(=O)c2S1 (stereo not given) | i
Cc1ccn2c(C(=O)N/N=C\c3cccs3)c(C)nc2c1 | i
Cc1cc(OC(C)C(=O)Nc2ccncc2)ccc1Cl (stereo not given) | i
CCOC(=O)N1CCN(C(=O)c2cc(-c3ccncc3)nc3ccccc23)CC1 | i
CN(C)C(=O)Cn1nc(-c2ccccc2)c2ccccc2c1=O | i
COc1ccccc1CN1C(=O)c2cccc3cccc(c23)C1=O | i
COc1ccc(CNC(=O)CSc2nnnn2C)cc1OC | i
CCOCCOCCC(C(=O)OCC)P(=O)(c1ccccc1)c1ccccc1 (stereo not given) | i
CN1C(=O)CSC1=Nc1ccc(F)cc1 | i
Cc1c(Cl)cccc1Nc1ncccc1C(=O)OCC(O)CO (stereo not given) | i
Cc1cccc(C(=O)Oc2coc(CSc3nnc(NC(=O)C4CC4)s3)cc2=O)c1 | i
COc1ccc(/C=C(\C#N)C(=O)OCC(=O)NCc2ccc(Cl)cc2)cc1 | i
CCOC(=O)CN1C(=O)C(O)(C2CCc3ccccc3C2=O)c2ccccc21 (stereo not given) | i
O=C(CCCn1cnc([N+](=O)[O-])n1)Nc1ccc(F)c(Cl)c1 | i

These rows are one share of the data; most or all hits stand in other tables.
